VDR inhibitor: Inhibitors of the vitamin D receptor (VDR): qHTS; Vitamin D3 receptor (Homo sapiens), P11473; VDR-SRC2-3 peptide fluorescence polarization, 2 h; Potency, µM, for the others: max response, negative = inhibition, actives largely listed as inhibitors; 400,000 tested, 0.93% active; AID 504847, 2011; active = well fitted inhibition curve with a large enough effect; inconclusive = small, poorly fitted or top-dose-only effect, or another doubt; inactive = no such curve, though single readings can be large or run the other way; also: series mostly up to about 120 µM
Target sequence (P11473 whole entry, looked up): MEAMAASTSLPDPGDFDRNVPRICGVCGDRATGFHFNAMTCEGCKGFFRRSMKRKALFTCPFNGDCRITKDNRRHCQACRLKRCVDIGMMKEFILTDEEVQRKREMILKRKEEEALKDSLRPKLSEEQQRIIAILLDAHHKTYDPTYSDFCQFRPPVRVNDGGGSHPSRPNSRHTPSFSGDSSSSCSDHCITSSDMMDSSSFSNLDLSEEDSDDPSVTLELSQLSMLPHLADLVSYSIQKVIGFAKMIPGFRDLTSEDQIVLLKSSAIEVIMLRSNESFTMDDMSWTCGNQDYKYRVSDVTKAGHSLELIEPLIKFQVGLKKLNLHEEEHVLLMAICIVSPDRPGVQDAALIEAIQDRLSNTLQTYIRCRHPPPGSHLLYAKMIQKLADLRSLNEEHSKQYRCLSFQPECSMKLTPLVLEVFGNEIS
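Reagent solutions, kept cold and dark, are dispensed first; compounds are then pinned in at 23 nl, plates briefly spun, and incubated 2 h at ambient temperature. Inhibition of VDR–SRC2-3 peptide binding is read by fluorescence polarization.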
Numbers without * were called inactive; u = inconclusive; & = joins results of further samples. % is scaled to controls: 0 for no effect and ±100 for the full control effect; potency is read from the fitted curve at half-maximal effect.

cpd | VDR inhibitor | structure
1 | 5.6% | O=C(c1ccccc1F)N1CCC(O)(c2cccnc2)CC1
2 | 3.7% | COc1cc2sc3cc(NCc4ccc(C)o4)ccc3c(=O)c2cc1OC
3 | -12.7% | COc1ccccc1N1CCN(c2nc(C)cc(=O)[nH]2)CC1
4 | -7.5% | O=C(CSc1nnc(N2CCCC2)n1-c1ccccc1Cl)N1CCN(c2ccccn2)CC1
5 | 23.6% | COC(=O)Nc1ccc(S(=O)(=O)N2CCCCC2C(=O)NCc2ccco2)cc1 (configuration not stated)
6 | -16.8% | Cc1ccc(CN2CCN(Cc3cn[nH]c3-c3ccccc3)CC2CCO)o1 (configuration not stated)
7 | 7.5% | CC(=O)c1coc2c1cc(O)c1ccccc12
8 | -4.4% | CC1Nc2ccc(Cl)cc2S(=O)(=O)N1 (configuration not stated)
9 | -2.5%&7.6% | CCOc1ccc(CN(C(=O)c2cc(=O)c3cc(C)cc(C)c3o2)C2CCS(=O)(=O)C2)cc1 (configuration not stated)
10 | 4.1% | O=C(CNC(=O)c1ccc(Br)cc1)NC1CC1
11 | u | Cc1cc2ccccc2nc1SCC(=O)NC1CCCC1
12 | 8.91µM* | CCC(=O)OCCNc1cc(Sc2nc3ccccc3s2)c2nonc2c1[N+](=O)[O-]
13 | 9.5% | COc1ccc(Oc2cccc(Cl)c2CNC(=O)CC(C)(C)CC(=O)O)cc1

Compounds shown so far that have a Cl atom:
cpd | VDR inhibitor | structure
4 | -7.5% | O=C(CSc1nnc(N2CCCC2)n1-c1ccccc1Cl)N1CCN(c2ccccn2)CC1
8 | -4.4% | CC1Nc2ccc(Cl)cc2S(=O)(=O)N1 (configuration not stated)
13 | 9.5% | COc1ccc(Oc2cccc(Cl)c2CNC(=O)CC(C)(C)CC(=O)O)cc1

Ordered by SMILES length (descending): three of the compounds above.
cpd | VDR inhibitor | structure
9 | -2.5%&7.6% | CCOc1ccc(CN(C(=O)c2cc(=O)c3cc(C)cc(C)c3o2)C2CCS(=O)(=O)C2)cc1 (configuration not stated)
1 | 5.6% | O=C(c1ccccc1F)N1CCC(O)(c2cccnc2)CC1
7 | 7.5% | CC(=O)c1coc2c1cc(O)c1ccccc12

Pulled by structure from the list above (2):
cpd | VDR inhibitor | structure
4 | -7.5% | O=C(CSc1nnc(N2CCCC2)n1-c1ccccc1Cl)N1CCN(c2ccccn2)CC1
2 | 3.7% | COc1cc2sc3cc(NCc4ccc(C)o4)ccc3c(=O)c2cc1OC

From PubChem

An excerpt; the hit share may differ from the screen's.
